# Screening data from PubChem.
# Sa growth inh: blocks Staphylococcus aureus growth; S. aureus RN4220 growth, OD600, 20 h, 42 °C; stronger effect = lower value; relative growth, % (test concentration not listed); actives 0.53% (n = 170,000);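 active = growth at 42 °C up to 50% and 20 or more points under that at 30 °C, or under 10% at both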;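 also: 300 nL library stock went into each well; scaled to the means of positive and negative controls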
# GIV Gai3 FP: GIV-Galpha-i interaction inhibition; percent of control (FP), % (concentration not given with the values); AID 1224905; actives 0.42% (n = 210,000); Galpha-i3/FITC-GIV peptide fluorescence polarization, 90 min; stronger effect = lower value; scaled: aluminum fluoride 0%, vehicle 100%;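 active = replicate mean at 85% of control or lower, very high polarization wells dropped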;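 also: wells of about 15 µL received 100 nL stock; the first replicate is given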
# Target sequence (P08753 whole entry, looked up): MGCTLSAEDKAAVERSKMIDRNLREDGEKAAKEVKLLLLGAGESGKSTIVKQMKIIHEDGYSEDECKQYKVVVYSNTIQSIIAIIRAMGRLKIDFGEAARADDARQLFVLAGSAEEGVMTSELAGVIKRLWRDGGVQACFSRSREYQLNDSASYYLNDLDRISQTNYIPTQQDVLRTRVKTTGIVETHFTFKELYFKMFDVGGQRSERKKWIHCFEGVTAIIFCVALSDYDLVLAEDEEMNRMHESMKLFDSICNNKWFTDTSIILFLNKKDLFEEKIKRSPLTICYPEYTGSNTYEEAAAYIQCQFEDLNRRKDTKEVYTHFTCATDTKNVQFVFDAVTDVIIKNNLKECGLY
# HCMV NEC inh: cytomegalovirus nuclear egress complex inhibition; HTRF UL50-UL53 interaction, normalized percent inhibition; inhibition, % (test concentration not listed); actives 0.15% (n = 190,000);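 active = both replicates at 50% or more, plus weaker picks with an unusually low signal ratio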;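 also: stock transfer was 100 nL into about 20 µL; 0% = negative control wells and 100% = wells with untagged competitor protein; inactives centre near -12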
# Sa growth inh second temp: second read-out of Sa growth inh, no call of its own (marks repeat the call); relative growth, %; measured here: growth at 30 °C;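 optical density after 20 h as mean of two plates; 100% = untreated growth and lower means inhibition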
# The depositor's hits bear a star; . = not tested or not shown; & = joins results of further samples.
# Codes – A = Sa growth inh; B = Sa growth inh second temp; C = GIV Gai3 FP; D = HCMV NEC inh
(1) CC1Cc2ccccc2N1C(=O)COC(=O)/C=C/c1ccc2c(c1)OCO2 (stereo unspecified)
  A: 102; B: 99; C: .; D: 12
(2) O=C(O)c1sc(=S)sc1C(=O)O
  A: 80; B: 89; C: .; D: -98
(3) COc1ccc(C(CNC2CC3CC=CC32)N(C)C)cc1OC (stereo unspecified)
  A: 96; B: 95; C: .; D: 4
(4) CCC(Sc1nc(N)cc(=O)[nH]1)C(=O)NC(C)c1ccccc1 (stereo unspecified)
  A: 94; B: 78; C: 106; D: -7
(5) O=C(O)c1cccc2cccc(S(=O)c3cccc4cccc(CO)c34)c12 (stereo unspecified)
  A: 92; B: 87; C: 103; D: -69
(6) CC(C)Cn1c(SCC(=O)c2ccc3c(c2)NC(=O)CO3)nc2ccccc2c1=O
  A: 95; B: 95; C: .; D: 12
(7) CCOC(=O)c1ccc(NC(=O)CN2C(=O)COc3ccc(Cl)cc32)cc1
  A: 89; B: 90; C: 105; D: -27
(8) O=C(Nc1ccon1)c1cc(-c2ccccc2)nc2ccccc12
  A: 116; B: 100; C: 104; D: -11
(9) O=C(OCC(=O)N1CCCC1)c1ccc(Oc2ccccc2)cc1
  A: 98; B: 84; C: .; D: -26
(10) CCc1ccc(OC(C)C(=O)N(Cc2ccccc2)C2CCS(=O)(=O)C2)cc1 (stereo unspecified)
  A: 80; B: 86; C: 103&100; D: -16
(11) Cc1ccc2nc(-c3cccc(NC(=O)CSc4ccc(Cl)cc4)c3)oc2c1
  A: 117; B: 96; C: 108; D: -4
(12) COc1ccc2c(c1)N(C(=O)NC1CCCCC1)C(C)(C)CC2C (stereo unspecified)
  A: 97; B: 101; C: 104; D: 1
(13) FC(F)(F)c1ccc2c(c1)[nH]c(=S)n2C1CC1
  A: 84; B: 93; C: 99; D: -3
(14) Cc1ccc(C)c(N2CCN(C(=O)c3cc4c(=O)n(Cc5cccs5)ccc4nc3C)CC2)c1
  A: 94; B: 90; C: 94; D: .
(15) CCOC(=O)c1c(C)c(-c2ccccc2)n(CC(=O)NCc2cccs2)c1C
  A: 103; B: 93; C: 100; D: -10
(16) Cc1ccccc1-n1c(=O)cc(NCCCn2ccnc2)[nH]c1=O
  A: 99; B: 94; C: 101; D: -1
(17) c1ccc(N=c2scc(-c3cccs3)n2N=C2CCCC2)cc1
  A: 110; B: 92; C: .; D: 6
(18) O=C(O)CSCC(=O)Nc1cccc2c1CCCC2
  A: 111; B: 85; C: 101; D: -4
(19) Cc1cc(C)c(-n2c(SCC(=O)c3ccc(C#N)cc3)n[nH]c2=O)c(C)c1
  A: 98; B: 80; C: 95; D: -30
(20) COc1cc(C2C(C(=O)Nc3nc4ccccc4s3)=C(C)NC3=C2C(=O)CCC3)cc(OC)c1OC (stereo unspecified)
  A: .; B: .; C: 102; D: -29
(21) CCOc1cc(C2NC(=O)NC(C)=C2C(=O)OC(C)CC)cc(Br)c1O (stereo unspecified)
  A: .; B: .; C: 100; D: 1
(22) CCCNC(=O)CCc1nnc2ccc(N3CCCC3)nn12
  A: 94; B: 93; C: 100; D: .
(23) Cc1cccn2c(=O)cc(COc3ccc(NC(=O)c4cccc(F)c4)cc3)nc12
  A: 101; B: 91; C: 98; D: .
(24) COc1ccc(Cl)cc1NC(=O)c1cn(C2CCCCC2)c(=O)c2c1c1ccccc1n2C
  A: 101; B: 90; C: 104; D: 14
(25) Cc1ccc(NC(=O)Cn2c(=O)ccc3cc(S(=O)(=O)N4CCC(C)CC4)ccc32)c(C)c1
  A: 98; B: 93; C: 99; D: .
(26) C=CCn1c(-c2ccccc2)csc1=Nc1ccc(O)cc1
  A: 73; B: 49; C: 113; D: .
(27) O=C(NCCC1=CCCCC1)c1cc2occc2c(Nc2ccc(F)cc2)n1
  A: .; B: .; C: 106; D: -2
(28) CC1(C)OC(=O)C(=CNc2ncccn2)C(=O)O1
  A: 88; B: 83; C: 103; D: -26
(29) O[C@@]1(c2ccccc2)C2C3CC4C5C3C1C5C(F)(F)C42 (stereo partly specified)
  A: 99; B: 102; C: 111; D: -4
(30) O=C(c1ccc2c(c1)N(Cc1ccc(F)cc1)CCS2)N1CCN(c2ccccc2)CC1
  A: 110; B: 98; C: 105; D: -3
(31) Cn1cc(C(=O)NC2CCCCC2)c2[nH]c(=O)n(-c3ccccc3)c(=O)c21
  A: .; B: .; C: 98; D: -5
(32) CC(=O)Nc1ccccc1-c1nc2ccccc2n(CC(=O)c2ccc(C)c(C)c2)c1=O
  A: 99; B: 94; C: 101; D: 3
(33) O=C(C1CCN(c2nn3cc(-c4ccc(F)cc4)nc3s2)CC1)N1CCOCC1
  A: .; B: .; C: 103; D: -13
(34) CC(=O)Nc1ccc(NC(NC(=O)c2ccco2)C(=O)c2ccc(Cl)cc2)cc1 (stereo unspecified)
  A: 88; B: 92; C: 109; D: 4
(35) CC1(C)CC(=O)C2=C(C1)OC1=C(C(=O)CC(C)(C)C1)C2c1ccccc1OCc1ccc(Cl)cc1Cl
  A: .; B: .; C: 103; D: -15
(36) FC(F)(F)c1cc(-c2ccc(-n3cccc3)cc2)n[nH]1
  A: 91; B: 76; C: 105; D: -23
(37) Cc1ccc(CN(C(=O)COc2cccc([N+](=O)[O-])c2)c2ccccn2)cc1
  A: 112; B: 87; C: 101; D: -36
(38) COc1ccc(OCCn2c(=O)oc3ccccc32)cc1
  A: 92; B: 74; C: 97; D: .
(39) CCOC(=O)c1c(C)[nH]c(C)c1S(=O)(=O)NCC(=O)N(C)c1ccc(C)c(C)c1
  A: 94; B: 94; C: 104; D: .
(40) COCc1cc(C)c2c(n1)sc1c2nc(C)n2c3ccccc3nc12
  A: 94; B: 91; C: .; D: 4
(41) O=S(=O)(c1ccc(Cl)cc1)N1CCCC(c2nc(-c3ccccc3)no2)C1 (stereo unspecified)
  A: .; B: .; C: 103; D: -12
(42) O=S(=O)(Nc1cccnc1)c1ccc(Oc2ccccc2)cc1
  A: 95; B: 94; C: 105; D: -27
(43) Cc1cc(=O)[nH]c(=O)[nH]1
  A: 82; B: 96; C: .; D: -1
(44) COc1cc(NC(=O)c2nn(C)c3c2CSc2ccccc2-3)cc(OC)c1
  A: .; B: .; C: 100; D: -26
(45) O=C(O)C(=Cc1ccc(-c2cccc(C(F)(F)F)c2)o1)C(=O)O
  A: 80; B: 87; C: 84*; D: -16
(46) COc1ccc(NS(=O)(=O)Cc2ccccc2)cc1
  A: 99; B: 87; C: .; D: 2
(47) CCOc1ccc(N2C(=O)/C(=C/c3ccc(OC)c(O)c3)N(C)C2=S)cc1
  A: 108; B: 91; C: 105; D: -48
(48) COc1cc(/C=N/N(C)C)ccc1OC(=O)c1cccs1
  A: 102; B: 91; C: .; D: -32
(49) CCOc1ccc(NC(=O)CCNC(=O)c2cn(-c3cccc(OC)c3)c(=O)c3ccccc23)cc1
  A: 102; B: 73; C: 102; D: .
(50) COc1cc2[nH]c(=S)nc(NC3CCCCCC3)c2cc1OC
  A: 71; B: 60; C: 140; D: .
(51) CCOc1cc2[nH]c(=O)n(CCCN3CCCC3=O)c(=O)c2cc1OCC
  A: 106; B: 95; C: 111; D: 4
(52) O=C(NC(Cc1ccccc1)C(=O)N1CCC1)c1ccccc1 (stereo unspecified)
  A: 81; B: 95; C: .; D: -13
(53) COc1cc(-c2cc(N)n(S(=O)(=O)c3ccccc3)n2)cc(OC)c1OC
  A: 100; B: 79; C: 103; D: -20
(54) CCN(CC)S(=O)(=O)c1ccc(C(=O)Nc2c3c(nn2-c2cc(C)cc(C)c2)CSC3)cc1
  A: .; B: .; C: 104; D: 5
(55) O=S(=O)(Nc1ccc(F)cc1)c1ccc(-n2cccn2)cc1
  A: 106; B: 105; C: 107; D: -4
(56) CSC(N)=NCCC[C@H](N)C(=O)O
  A: .; B: .; C: 98; D: -17&-17&-24
(57) O=C(Cn1ncc2c(=O)oc3ccccc3c21)N1CCCc2ccccc21
  A: 101; B: 92; C: 102; D: .
(58) COC(=O)c1cn(CC(=O)c2cc(C)n(C)c2C)c2ccccc12
  A: 104; B: 84; C: .; D: -32
(59) CCN(CC)S(=O)(=O)c1ccc(NC(C)CCc2ccccc2)nc1 (stereo unspecified)
  A: 99; B: 93; C: .; D: -7
(60) CC(C)NC1=NCCS1
  A: 101; B: 92; C: 99; D: -4

# Sorted by value in Sa growth inh second temp (low to high): three from the list above.
No.	molecule	Sa growth inh second temp
47	CCOc1ccc(N2C(=O)/C(=C/c3ccc(OC)c(O)c3)N(C)C2=S)cc1	91
59	CCN(CC)S(=O)(=O)c1ccc(NC(C)CCc2ccccc2)nc1 (stereo unspecified)	93
52	O=C(NC(Cc1ccccc1)C(=O)N1CCC1)c1ccccc1 (stereo unspecified)	95

# Filtered by structure: the entries above containing a Cl atom
# Codes – A = Sa growth inh; B = Sa growth inh second temp; C = GIV Gai3 FP; D = HCMV NEC inh
(7) CCOC(=O)c1ccc(NC(=O)CN2C(=O)COc3ccc(Cl)cc32)cc1
  A: 89; B: 90; C: 105; D: -27
(11) Cc1ccc2nc(-c3cccc(NC(=O)CSc4ccc(Cl)cc4)c3)oc2c1
  A: 117; B: 96; C: 108; D: -4
(24) COc1ccc(Cl)cc1NC(=O)c1cn(C2CCCCC2)c(=O)c2c1c1ccccc1n2C
  A: 101; B: 90; C: 104; D: 14
(34) CC(=O)Nc1ccc(NC(NC(=O)c2ccco2)C(=O)c2ccc(Cl)cc2)cc1 (stereo unspecified)
  A: 88; B: 92; C: 109; D: 4
(35) CC1(C)CC(=O)C2=C(C1)OC1=C(C(=O)CC(C)(C)C1)C2c1ccccc1OCc1ccc(Cl)cc1Cl
  A: .; B: .; C: 103; D: -15
(41) O=S(=O)(c1ccc(Cl)cc1)N1CCCC(c2nc(-c3ccccc3)no2)C1 (stereo unspecified)
  A: .; B: .; C: 103; D: -12

# Record cards (already shown). Values in the order: Sa growth inh, Sa growth inh second temp, GIV Gai3 FP, HCMV NEC inh
# CC1(C)CC(=O)C2=C(C1)OC1=C(C(=O)CC(C)(C)C1)C2c1ccccc1OCc1ccc(Cl)cc1Cl across the screens: ., ., 103, -15
# CCOC(=O)c1ccc(NC(=O)CN2C(=O)COc3ccc(Cl)cc32)cc1 across the screens: 89, 90, 105, -27
# COc1cc(C2C(C(=O)Nc3nc4ccccc4s3)=C(C)NC3=C2C(=O)CCC3)cc(OC)c1OC (stereo unspecified) across the screens: ., ., 102, -29
# O=S(=O)(c1ccc(Cl)cc1)N1CCCC(c2nc(-c3ccccc3)no2)C1 (stereo unspecified) across the screens: ., ., 103, -12
# O=C(NC(Cc1ccccc1)C(=O)N1CCC1)c1ccccc1 (stereo unspecified) across the screens: 81, 95, ., -13

# Next part.
# Codes – A = Sa growth inh; B = Sa growth inh second temp; C = GIV Gai3 FP; D = HCMV NEC inh
(61) COc1ccc(CC(NC(C)=O)C(=O)N2CCN(C(=O)Nc3ccc(C#N)cc3)CC2)cc1 (stereo unspecified)
  A: 95; B: 74; C: 103; D: -2
(62) COc1ccc(-c2nnc(SCC(=O)NC(=O)NCc3ccco3)n2C(C)C)cc1
  A: 79; B: 90; C: .; D: 3
(63) O=C(CN1CCN(Cc2ccc(F)cc2)C1=O)NC1CCCC1
  A: 103; B: 84; C: 98; D: -20
(64) CCc1nn2c(=O)cc(COC(=O)C(CC)c3ccccc3)nc2s1 (stereo unspecified)
  A: 109; B: 85; C: 101; D: .
(65) CCCC(=O)c1ccc(OC)c(OC)c1
  A: 84; B: 87; C: 106; D: -11
(66) COC(=O)c1cc(-c2c(C)oc3cc(OC(C)=O)ccc3c2=O)c(C)o1
  A: 113; B: 91; C: .; D: -44
(67) O=C(c1ccc(F)cc1F)N1CCC(c2noc(-c3ccc(S(=O)(=O)N4CCCC4)cc3)n2)CC1
  A: 100; B: 86; C: 99&102; D: -32&-10
(68) O=C(CSc1ncnc2c1sc1cccc(F)c12)NCc1ccccn1
  A: .; B: .; C: 186; D: -27
(69) Fc1ccccc1-c1nnc2sc(-c3ccc4ccccc4n3)nn12
  A: .; B: .; C: 107; D: -20
(70) COc1cccc(OCC(O)CN2CCC(CN3C(=O)c4cccc5cccc(c45)C3=O)CC2)c1 (stereo unspecified)
  A: .; B: .; C: 102; D: -111
(71) O=C1OC(NCc2cccnc2)(c2ccccc2)c2ccccc21 (stereo unspecified)
  A: 86; B: 85; C: 97; D: -10
(72) O=C(CSc1n[nH]c(-c2ccc(F)cc2)n1)N1CCN(c2ccc(F)cc2)CC1
  A: 93; B: 95; C: 105; D: .
(73) Cc1ccc(NS(=O)(=O)c2c(C)nc3sc(C)c(C)n3c2=O)cc1F
  A: 104; B: 72; C: 108; D: .
(74) CCOC(=O)Cn1c2ccccc2c2nc3ccccc3nc21
  A: .; B: .; C: 110; D: 13
(75) COc1cccc(-n2ccnc2SCC(=O)Nc2cccc(C)c2C)c1
  A: 102; B: 91; C: 103; D: .
(76) CCc1ccc2c(c1)NC(c1cccs1)=NC(c1ccc(F)cc1)=N2
  A: 103; B: 95; C: 98; D: -7
(77) COc1ccc(C(=O)Nc2nnc(C)s2)cc1
  A: 92; B: 93; C: 107; D: -44
